Source: PubChem BioAssay
HIV TAR-Tat – HIV-1 TAR-Tat binding disruption | HIV-1 TAR RNA, Tat peptide displacement FRET; stronger effect = higher value | z-score (no concentration beside the values) | actives 0.6% (n = 100,000) | AID 1259389;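 further: score is relative to mean and SD of negative controls; some compounds called inactive have numbers as strong as hits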
CDC25B-CDK2 inh – human CDC25B-CDK2/CyclinA binding inhibition | AID 1259370 | z-score (no concentration beside the values) | actives 0.72% (n = 94,000) | HTRF CDC25B-CDK2/CyclinA binding, anti-His/anti-Flag; stronger effect = higher value;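 further: score is relative to mean and SD of negative controls; strong numbers were not always called active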
Active calls of the source: *; . = no result given.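 How the source made its calls: active means z-score from 3 up in half or more of its runs; inactive means the rest.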

Preview, two compounds:
Molecule	HIV TAR-Tat	CDC25B-CDK2 inh
CC1(C(=O)O)C2C=CC3(CN(Cc4ccccc4)C(=O)C31)O2 (configuration not stated)	2.93	-1.5
COc1cccc(N2CCN(S(=O)(=O)c3cn(C)c(C)n3)CC2)c1	0.79	.

The listing, repeating the preview:
Molecule	HIV TAR-Tat	CDC25B-CDK2 inh
CC1(C(=O)O)C2C=CC3(CN(Cc4ccccc4)C(=O)C31)O2 (configuration not stated)	2.93	-1.5
COc1cccc(N2CCN(S(=O)(=O)c3cn(C)c(C)n3)CC2)c1	0.79	.
CS(=O)(=O)N1CCN(c2ccc(NC3=NS(=O)(=O)c4ccccc43)cc2)CC1	1.08	0.86
O=C(c1ccc(-n2cccn2)cc1)N1CCc2ccccc2C1	.	-1.35
CC1=C(c2ccc(C(C)C)cc2)S(=O)(=O)N=C1N1CCN(c2ccccc2)CC1	0.13	-2.29
O=C(NCC(c1ccco1)S(=O)(=O)c1ccc(Cl)cc1)c1ccco1 (configuration not stated)	1.88	.
CC(C)CCn1c(CCCC(=O)NC2CCCC2)nc2cccnc21	-0.48	.
Cn1ncc2c(N3CCOCC3)nc(N3CCN(C4CCCCC4)CC3)nc21	1.23	.
Cc1nn2c(=O)cc(CSc3nc4ccc(NC(=O)C5CCCCC5)cc4s3)nc2s1	0.66	.
COc1cc(C2OC(c3cc(Br)ccc3OC(C)=O)=NN2C(C)=O)ccc1OC(C)=O (configuration not stated)	2.04	.

(continued)
Molecule	HIV TAR-Tat	CDC25B-CDK2 inh
Cn1ncc2c(N(Cc3ccccc3)Cc3ccccc3)ncnc21	1.28	.
CCn1c(COc2ccc(Cl)cc2)nc2ccccc21	-0.16	0.03
Cc1ccc(C)c(N2CCN(S(=O)(=O)c3ccc4nc(-c5ccccc5)[nH]c4c3)CC2)c1	.	0.51
Cc1nc2sc(C(c3cccc(F)c3)N3CCN(CCO)CC3)c(O)n2n1 (configuration not stated)	.	-2.39
CCCSc1nc2c(c(=O)[nH]1)C(c1ccccc1)C(C(=O)OC)=C(C)N2 (configuration not stated)	1.74	-2.06
Cn1c(Cc2cccs2)nnc1SCC(=O)c1c[nH]c2ccccc12	-1.69	-0.93
CCCOc1ccc(C2c3c(-c4c(C)cc(C)cc4O)n[nH]c3C(=O)N2CCO)cc1 (configuration not stated)	1.39	-1.81
Cc1ccc(CNS(=O)(=O)c2cc(-c3cc(C)no3)ccc2C(C)C)cc1	1.92	.
C/C(=N\O)c1csc(-c2snnc2C)n1	.	-0.82
CCCc1cc(-c2n[nH]c(C)c2-c2ccc(C(=O)OCC)o2)c(O)cc1O	-0.2	-0.14

Going on with the list.
Molecule	HIV TAR-Tat	CDC25B-CDK2 inh
CCc1nn(CC(=O)NCC2CCCO2)c(=O)c2cc3sccc3n12 (configuration not stated)	-0.05	-0.62
CCC(=O)N1CCc2cc(S(=O)(=O)CCC(=O)N3CCN(c4ccccn4)CC3)ccc21	0.89	.
Cc1ccc2ncc(S(=O)(=O)c3ccc(C)c(C)c3)c(N3CCN(C)CC3)c2c1	-0.57	-1.88
CCOC(=O)c1c(C)oc2ncnc(Nc3ccc(F)c(Cl)c3)c12	-0.03	-0.13
COc1ccc(OC)c(S(=O)(=O)Nc2ccc3c(c2)n(C)c(=O)n3C)c1	-0.44	-2.08
O=C1C2C(c3ccccc3Cl)OC3(C(=O)c4ccccc4C3=O)C2C(=O)N1C1CCCCC1 (configuration not stated)	.	-1.72
COC(=O)C1=C(C)NC2=C(C(=O)CC(C)(C)C2)C1c1cc2c(cc1Br)OCO2 (configuration not stated)	0.31	0.29
CCc1ccc(-c2cc(C)no2)cc1S(=O)(=O)N(C)Cc1cnn(-c2ccccc2)c1	0.54	.
CC(=O)Nc1c(OC(C)=O)ccc2c(C)cc(=O)oc12	.	-1.31
O=C(Cn1c(-c2cccs2)cc2ccccc21)NC1CCCCC1	1.16	-1.31

Next records.
Molecule	HIV TAR-Tat	CDC25B-CDK2 inh
CCOC(=O)C(CC)Oc1ccc2c(=O)c(Oc3ccc(CC)cc3)coc2c1 (configuration not stated)	.	-2.04
CN(C)c1nc(-c2ccccc2O)nc2ccccc12	0.27	-5.23
Cc1cc(C)cc(NC(=O)c2oc3c(c2C)-c2[nH]ncc2CC3)c1	-0.25	-1.42
NC(=O)C1CCN(C(=O)CSc2nc(-c3cccs3)cc(C(F)(F)F)n2)CC1	.	0.27
FC1(F)C2C3C=CC(O3)C2C1(F)F (configuration not stated)	.	0.29
O=c1c(NCCC2=CCCCC2)nccn1-c1cccc(F)c1	-2.05	.
CC(C)n1c(Sc2c([N+](=O)[O-])ncn2C)nc2cc(Cl)ccc21	.	-1.91
COc1ccccc1N1C(=O)CC(N2CCC(C(N)=O)(N3CCCCC3)CC2)C1=O (configuration not stated)	.	-1.7
CNC(=O)c1ccc(N(Cc2cc(C)ccc2C)C2=NC3CS(=O)(=O)CC3S2)cc1 (configuration not stated)	-0.68	-1.83
Cc1ccccc1NC(=O)CSc1nc(-c2ccccc2C)nc2cc(=O)[nH]n12	1.39	.

The results go on:
Molecule	HIV TAR-Tat	CDC25B-CDK2 inh
CCc1c(C)nc2nc(Cc3cccc(F)c3)[nH]n2c1=O	1.01	-1.64
CC1=C(C(=O)OC2CCCC2)C(c2ccc(C)cc2)CC(=O)N1 (configuration not stated)	0.35	-0.92
Cc1cc(OCc2ccccc2)ccc1[N+](=O)[O-]	.	-1.05
O=C(CSc1nc2c(c(C(F)(F)F)n1)CCc1ccccc1-2)NCCCn1ccnc1	0.69	1.65
O=C(CSCc1cnn(-c2ccccc2)c1-n1cccc1)N1CCN(c2ccc(Cl)cc2)CC1	0.15	0.46
Cc1cn2c(=O)cc(CSc3ccccc3NC(=O)c3cccs3)nc2s1	0.65	.
O=C(C1CCN(c2ccc(-c3cccs3)nn2)CC1)N1CCC(c2ccccc2)C1 (configuration not stated)	0.39	.
CCOC(=O)Cc1[nH]nc2c1C(c1ccc(F)c(Oc3ccccc3)c1)C(C#N)=C(N)O2 (configuration not stated)	0.82	-1.76
O=C1CS/C(=N/N=C/c2ccn[nH]2)N1	.	-1.43
Cc1ccsc1C1NC(=O)c2c(sc3c2CCCC3)N1 (configuration not stated)	3.33	-0.72

The list continues.
Every second line gives: HIV TAR-Tat, CDC25B-CDK2 inh
- CCCCCn1c(CN2CCN(c3ccc(F)cc3)CC2)nc2c1c(=O)n(C)c(=O)n2C
    0.37, -1.18
- CC1Cc2cc(S(=O)(=O)N3CCCCC3C)ccc2N1C(=O)C1CCC1 (configuration not stated)
    -0.53, .
- Cc1ncc(CO)c2cc(C(=O)c3ccc4c(c3)OCO4)c(=O)oc12
    0.98, -0.42
- CC(=O)Nc1ccc(S(=O)(=O)[C@H]2CS(=O)(=O)C[C@@H]2N2C[C@H](C)C[C@H](C)C2)cc1
    -0.82, -0.94
- C[C@@H]1C(=O)NC2=Nc3cccc(Cl)c3CN21
    ., -1.07
- C[N+](C)(C)CCOP(=O)(O)OP(=O)([O-])OC[C@H]1O[C@@H](n2ccc(N)nc2=O)C(O)[C@H]1O (some centres not stated)
    ., -1.57
- Cc1nc(-c2csc(S(=O)(=O)Nc3ccc(Cl)cc3F)c2)no1
    1.83, .
- CCOc1ccc(NS(=O)(=O)c2ccc(-c3cnc(C4CC4)o3)cc2)cc1
    1.48, .
- O=C1CC2(CCCC2)CC(=O)N1CCCCN1CCN(c2ncccn2)CC1
    ., -0.6
- Cc1cc(C)[n+](C)n1-c1ccccc1
    -0.07, 0.82

The list goes on.
Every second line gives: HIV TAR-Tat, CDC25B-CDK2 inh
- C=CC(=O)N1CN(C(=O)C=C)CN(C(=O)C=C)C1
    ., -1.58
- CCN1CCN(C(=O)c2cc3c(s2)-c2cc(C)sc2CC3)CC1
    1.81, .
- CSc1cccc(NC(=O)C2CCN(S(=O)(=O)c3ccc4[nH]c(=O)oc4c3)CC2)c1
    1.02, .
- Cn1cc(C(=O)Nc2cc(F)ccc2F)c(C(F)(F)F)n1
    ., -2.69
- CC1(C)CC(=O)C2=C(C1)NC1=C(C(=O)CC(C)(C)C1)C2c1ccc(Br)cc1
    0.4, -0.84
- O=C1CCCN1CCCNc1ncnc2onc(-c3cccc(Cl)c3)c12
    -0.19, .
- Cc1nn(CC(=O)NCc2cccnc2)c(=O)c2cc3sccc3n12
    -0.01, -0.39
- COC(=O)COc1cc(OC)ccc1C(=O)OC
    ., -1.37
- CCN(CC)S(=O)(=O)c1ccc2c(c1)N(CC(=O)N1CCN(c3ccccn3)CC1)CCS2
    -0.6, .
- CC1=C(C(=O)Nc2ccc(C)cn2)C(c2ccc3c(c2)OCO3)C2=C(CCCC2=O)N1 (configuration not stated)
    -0.07, -1.62

The list goes on.
Every second line gives: HIV TAR-Tat, CDC25B-CDK2 inh
- O=C1C2N=NN(Cc3ccccc3Cl)C2C(=O)N1c1ccc(Cl)cc1 (configuration not stated)
    -0.3, 0.87
- Cc1oc(-c2cccs2)nc1CSc1nc2ncccc2o1
    1.9, .
- Cc1noc(C)c1S(=O)(=O)N1CCN(C(=O)C2COc3ccccc3O2)CC1 (configuration not stated)
    ., 1.32
- CN(C)c1nc2c(c(=O)n(Cc3ccccc3)c(=O)n2C)n1Cc1ccccc1
    ., 1.32
- CCOC(=O)c1c(C)[nH]c(C)c1S(=O)(=O)N1CCC(C(=O)N2CCN(CC)CC2)CC1
    1, .
- Cc1ccc(OCc2ccc(-c3nc(C#N)c(NCC4CCCO4)o3)o2)cc1 (configuration not stated)
    0.52, -1.28
- O=C1CCC(C(=O)NC2(C(=O)NC3CCCCC3)CCCCC2)N1 (configuration not stated)
    ., 0.97
- COCCNC(=O)CCC(=O)n1ncc2ccc(Cl)cc21
    0.37, -1.58
- CCc1c(C)[nH]c2c1C(=O)C(CN1CCOCC1)CC2 (configuration not stated)
    ., 1.35
- Cc1cc(NC(=O)CCS(=O)(=O)c2ccc3c(c2)NC(=O)C(C)S3)ccc1Br (configuration not stated)
    2.02, .

Next section:
Every second line gives: HIV TAR-Tat, CDC25B-CDK2 inh
- CN1C(=O)C(O)(c2c[nH]c3ccccc23)c2cc(Br)ccc21 (configuration not stated)
    ., 0.5
- O=C(CCc1ccccc1)Nc1nnc(SCc2cc(=O)c3ccccc3[nH]2)s1
    2.35, .
- O=C(NCc1ccccc1Br)Nc1cccs1
    -4.37, -0.47
- COC(=O)c1sc(NC(=O)CSc2nnc3sc4ccccc4n23)c(C(=O)OC)c1C
    ., 0.26
- Cc1ccc(C2/C(=C(\O)c3ccc(Cl)cc3)C(=O)C(=O)N2CCCN2CCOCC2)cc1 (configuration not stated)
    2.03, -1.81
- CCc1ccc2occ(CC(=O)Nc3sc4c(c3C(=O)NCc3cccnc3)CCCC4)c2c1
    1.06, -2.3
- Cc1ccc(NS(=O)(=O)c2ccc(-c3ccc(=O)[nH]n3)o2)cc1F
    1.6, .
- CCOC(=O)CSc1nnc2c3ccccc3nc(-c3ccccc3)n12
    1.81, .
- Cc1csc(NC(=O)CSc2nnc3ccc4ccccc4n23)n1
    0.31, -0.79
- Cc1ccc(S(=O)(=O)NCc2cn3ccccc3n2)c(C)c1
    ., -1.27

(listing goes on)
Every second line gives: HIV TAR-Tat, CDC25B-CDK2 inh
- Cc1nn(-c2cc(N3CCOCC3)ncn2)c(C)c1CCC(=O)O
    0.64, 0.45
- C=C(C)CC1NC2CC(C)(C)C1c1c(Br)cccc12 (configuration not stated)
    ., 0.19
- Cn1c(SCc2ccc(F)cc2)nc(=O)c2c1NC(=O)CC2c1cc(F)ccc1F (configuration not stated)
    0.94, 0.17
- COC(=O)Nc1ccc(S(=O)(=O)Nc2ncccn2)cc1
    -0.27, -0.7
- COc1cc(OC)c(NC(=O)Cn2cnc3nc(SC)ncc3c2=O)cc1Cl
    1.2, .
- Fc1ccc(-n2ncc3c(N4CCN(c5ccccc5)CC4)ncnc32)cc1
    0.4, .
- COc1ccc(Cl)cc1-n1nnc(S(=O)(=O)c2ccc(C)cc2)c1C
    1.51, -0.59
- Brc1ccc(-c2nnc3sc(CN4CCC5(CC4)OCCO5)cn23)cc1
    ., -1.1
- CCCN1C(=O)C2(c3ccccc31)c1c(oc3cc(C)c(C)cc3c1=O)C(=O)N2CCOC (configuration not stated)
    0.44, -2.09
- Cn1[nH]c2c(c1=O)CSCC2
    ., -2

(cont.)
Every second line gives: HIV TAR-Tat, CDC25B-CDK2 inh
- Cc1nc2ccc(NS(=O)(=O)c3ccccc3C(F)(F)F)cc2o1
    ., -0.44
- O=C(O)C1C2CCC(O2)C1C(=O)N1CCN(c2ccc(F)cc2)CC1 (configuration not stated)
    0.17, 0.3
- CC1CCN(c2nn3c(=O)c(C(=O)NCCCN4CCN(C)CC4)cnc3s2)CC1
    0.77, .
- O=C(COc1ccccc1Cl)OCc1cc(=O)n2c3c(sc2n1)CCCC3
    0.48, .
- O=C1c2nccnc2C(=O)N1c1cc(Cl)c(-n2cccc2)cc1Cl
    ., -1.33
- Nc1cc(-c2ccccc2)nn1S(=O)(=O)c1ccc(F)c(Cl)c1
    -0.05, -0.25
- O=C(NCCc1ccco1)c1cc2cc3ccc(Cl)cc3nc2o1
    -6.9, .
- O=C1C2C(c3ccccc3)OC3(C(=O)c4ccccc4C3=O)C2C(=O)N1c1ccc(Cl)cc1 (configuration not stated)
    -1.44, 0.18
- CC(C)(C)c1ccc(CCC(CC(=O)O)CC(=O)O)cc1
    -0.95, -1.78
- CCN(CCCNc1nnc2c3ccccc3n(CC)c2n1)c1cccc(C)c1
    0.96, -3.18

Some of these compounds in order of SMILES length, low to high.
Every second line gives: HIV TAR-Tat, CDC25B-CDK2 inh
- O=C(NCCc1ccco1)c1cc2cc3ccc(Cl)cc3nc2o1
    -6.9, .
- Nc1cc(-c2ccccc2)nn1S(=O)(=O)c1ccc(F)c(Cl)c1
    -0.05, -0.25
- O=C(COc1ccccc1Cl)OCc1cc(=O)n2c3c(sc2n1)CCCC3
    0.48, .
- CC1CCN(c2nn3c(=O)c(C(=O)NCCCN4CCN(C)CC4)cnc3s2)CC1
    0.77, .
- O=C1C2C(c3ccccc3)OC3(C(=O)c4ccccc4C3=O)C2C(=O)N1c1ccc(Cl)cc1 (configuration not stated)
    -1.44, 0.18
